# Assay outcomes from PubChem BioAssay.
# PABP polyA inh = blocks human PABP binding to poly(A) RNA; P11940; fluorescence polarization; inhibition, % at 35 µM; 1% of 290,000 active; AID 2014;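 active means 50% or more with normal probe brightness, or confirmed in later tests; inconclusive means above 50% with abnormal brightness, or retests that disagree; inactive means below 50% or failed in later tests; about a fifth of its hits are not listed in these tables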;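 further: calls also rest on retests at 20 µM and on dose response follow-up; controls were probe without protein and protein plus probe with vehicle; some compounds called inactive have numbers as strong as hits; many hits fall short of the cut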
# Target sequence (P11940 whole entry, looked up): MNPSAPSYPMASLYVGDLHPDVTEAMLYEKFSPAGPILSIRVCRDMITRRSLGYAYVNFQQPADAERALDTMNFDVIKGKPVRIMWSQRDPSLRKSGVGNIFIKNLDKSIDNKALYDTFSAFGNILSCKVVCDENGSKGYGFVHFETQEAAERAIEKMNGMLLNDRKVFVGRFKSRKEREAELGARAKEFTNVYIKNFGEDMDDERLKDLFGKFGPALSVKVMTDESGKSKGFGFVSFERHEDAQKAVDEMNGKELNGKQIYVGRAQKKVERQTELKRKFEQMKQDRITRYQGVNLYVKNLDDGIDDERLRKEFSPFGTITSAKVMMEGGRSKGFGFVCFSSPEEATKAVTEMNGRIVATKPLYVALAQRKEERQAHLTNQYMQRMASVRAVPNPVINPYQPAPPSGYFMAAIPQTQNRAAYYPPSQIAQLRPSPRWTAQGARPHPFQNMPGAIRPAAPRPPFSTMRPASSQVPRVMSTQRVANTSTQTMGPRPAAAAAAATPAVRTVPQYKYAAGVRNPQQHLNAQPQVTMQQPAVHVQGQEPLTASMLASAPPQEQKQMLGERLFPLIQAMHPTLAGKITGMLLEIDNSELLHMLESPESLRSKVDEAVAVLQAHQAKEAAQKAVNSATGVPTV
# MT1-MMP act inh = MT1-MMP (human) activation inhibition. P50281. HT1080 RFP-PRO-GFP cells, GFP/RFP ratio fluorescence, overnight; percent of plate control window, DMSO zero. GFP/RFP ratio change, % at 20 µM. 0.061% of 360,000 active. AID 651647;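 active means GFP/RFP ratio change of at least 30% with cell ATP level not reduced by more than half and red fluorescence within 50% of control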; further: strong numbers were not always called active
#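 Assay system: RFP-PRO-GFP reporter HT1080 cells; read-out basis: GFP/RFP fluorescence ratio; benchmarks: DMSO wells and RFP-L50D-GFP cells; doses: 20 µM single dose, 1% DMSO; schedule: overnight cell settling, then overnight compound exposure, 37 °C, 5% CO2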
# Env fusion inh = inhibitors of HIV Env-mediated cell fusion; HeLa-JRFL Env/CEM21 cell fusion, luciferase; inhibition, % at 12.3 µM; 1.1% of 360,000 active;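 active means mean replicate inhibition score of at least 50 and every replicate individually at or above 50; inconclusive means only one of the two criteria met; inactive means mean below 50 and not all replicates reaching 50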;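 further: 0% = plate neutral controls and 100% = maraviroc near 300 nM; one replicate is shown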
# eIF4H FP inh = inhibitors of RNA binding by human eIF4H; Q15056; eIF4H fluorescence polarization binding assay; inhibition, % at 35 µM; 0.94% of 290,000 active;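 active means 50% or more with normal probe brightness, or confirmed in later tests; inconclusive means above 50% with abnormal brightness, or retests that disagree; inactive means below 50% or failed in later tests; about a fifth of its hits are not listed in these tables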;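 further: calls also rest on retests at 20 µM and on dose response follow-up; 0% = protein and probe with vehicle and 100% = probe without protein; strong numbers were not always called active; many hits fall short of the cut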
# Yeast UUG start = yeast start codon fidelity modulation; activity score, % at 18.7 µM; 0.13% of 350,000 active; S. cerevisiae UUG-firefly luciferase reporter, luminescence/redox ratio;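 active means replicate mean at a twofold rise or more, about +100% in these data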;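 further: firefly luciferase made from a UUG start codon reports start codon fidelity; reporter light over untreated wells divided by growth signal over untreated wells; some hits fall short of that in this replicate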
# CSC inhib = cancer stem cell inhibition; cancer stem cell-like cells viability, luminescence; inhibition, % at 7.5 µM; 1.1% of 300,000 active; AID 2717;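 active means mean at 75% or more and at least half the replicates too; inconclusive means mean and replicates disagree; tested in HMLE shEcad cells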;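 further: 0% = median of negative and 100% = median of positive control wells; the first replicate is given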
# Rce1 inhib = inhibitors of yeast Ras-converting enzyme; calls only; AID 2563; 0.27% of 290,000 active; yeast membranes, quenched prenylated peptide cleavage fluorescence;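 active means fall in fluorescence gain of 50% or more versus controls, with final raw signal at or below 3038400; inconclusive means same 50% fall but final raw signal above 3038400; inactive means fall in fluorescence gain under 50%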;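 further: plate controls were neutral control wells for no effect and wells lacking membranes for full effect; tested at 10 µM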
# Target sequence (Q03530 whole entry, looked up): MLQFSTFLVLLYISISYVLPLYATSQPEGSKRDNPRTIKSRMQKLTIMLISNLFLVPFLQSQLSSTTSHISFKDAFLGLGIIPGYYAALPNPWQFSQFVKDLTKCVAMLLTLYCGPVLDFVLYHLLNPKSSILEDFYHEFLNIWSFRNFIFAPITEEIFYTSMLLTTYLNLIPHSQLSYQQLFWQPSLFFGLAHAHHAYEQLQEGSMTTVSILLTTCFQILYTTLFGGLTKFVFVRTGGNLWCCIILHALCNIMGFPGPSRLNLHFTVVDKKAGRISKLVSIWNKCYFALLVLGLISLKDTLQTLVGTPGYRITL
# eIF4H FP inh retest = also measured in eIF4H FP inh; calls as there; inhibition, %; compound at 20 µM; confirmation average;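 mean of two retest wells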
# PABP polyA inh retest = second read-out of PABP polyA inh, no call of its own (marks repeat the call); inhibition, %; compound at 20 µM; confirmation repeats;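 mean of two retest wells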
# MT1-MMP act inh RFP = further read-out of MT1-MMP act inh, marked with its call; RFP signal change, %; measured here: RFP expression control read;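 0 = vehicle wells; hits needed this value within 50% of zero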
# Numbers without * were called inactive; i = inactive; ? = inconclusive; . = no result given; & = joins results of further samples. An unsorted share of the library, and some 3% of all compounds hit somewhere here.
SMILES,PABP polyA inh,MT1-MMP act inh,MT1-MMP act inh RFP,Env fusion inh,eIF4H FP inh,Yeast UUG start,CSC inhib,Rce1 inhib,others
COC(=O)Cn1c2ccccc2c2nc(=O)cc(C)n21,1,-1,3,4,4,.,-12,i,
Cc1cccc(C(=O)NCC(=O)NCC(c2ccco2)N2CCCCC2)c1 (stereo not drawn),.,3,6,2,.,-11,-2,i,
C[C@H](CO)N1C[C@H](C)[C@H](CN(C)C(=O)Nc2ccc(F)cc2)Oc2ccc(NC(=O)NC3CCCCC3)cc2CC1=O,.,-1,-1,-30,.,12&8,-7,.,
c1nc(N2CCOCC2)c2c3c(sc2n1)CCCC3,-1,-7,-2,?,-10,-19,2,i,
CCCCCCCC1(C)NC(=O)NC1=O (stereo not drawn),-10,7,3,5,-12,3,-8,i,
Cc1ccc(OCCC(=O)OCC(=O)NC(=O)NC2CCCC2)cc1,.,1,3,1,.,.,-6,i,
OCC1(Cc2ccccc2)CCCN(Cc2ccn[nH]2)C1 (stereo not drawn),-5,-3,3,0,-6,.,-6,i,
CCCOC(=O)c1ccc(NC(=O)COC(=O)C2CCN(c3ccc(C(F)(F)F)cn3)CC2)cc1,.,2,5,-3,.,15,.,.,
CCOC(=O)C1CCCN(C(=O)c2csc(-c3ccc4c(c3)CCO4)n2)C1 (stereo not drawn),0,-1,-2,23,8,4,-9,i,
O=C(c1cccnc1Nc1ccccc1F)N1CCOCC1,-9,-2,-4,-4,-5,6,-12,i,
COc1ccccc1CNC(=O)c1cc(-c2cccnc2)nc2ccccc12,10,-1,-1,6,8,-52,-15,i,
CCOc1ccc(NC(=O)CN(C)C(=O)c2ccc(-c3ccc(C(C)=O)cc3)o2)cc1OCC,.,-1,0,-49,.,.,.,i,
CNC(=O)COC(=O)c1cc2c(s1)CCCC2,-1,2,2,0,-12,.,-10,i,
Cc1cccc(C)c1-n1c(C)cc(/C=N/NC(=O)CSc2ncccn2)c1C,6,2,1,-8,6,.,-9,i,
CCOC(=O)C1Cc2ccccc2C(=O)O1 (stereo not drawn),-4,3,3,.,-7,-24,-1,i,
Cn1c(CC(=O)NNC(=O)c2ccc(F)cc2Cl)nc2ccccc21,.,0,4,4,.,-25,-9,.,
COc1ccc(NC(=O)C2CCCN2S(=O)(=O)c2cccc3cccnc23)c(OC)c1 (stereo not drawn),-9,-3,2,12,-16,17,-14,i,
CC1(C)CC(=O)/C(=C(\O)CCCN2C(=O)c3ccccc3C2=O)C(=NCC(=O)O)C1,-7,0,-1,-3,0,.,-3,i,
COC(=O)CN(c1ccc(F)cc1)S(=O)(=O)c1ccccc1,0,1,5,-95,-3,-28,.,i,
CCN(CC)CCN=CC1=C(O)CNC1=O,5,2,1,-31,3,-16,3,i,
CC1=Nc2ccc(C)cc2N(Cc2ccccc2)C(=O)C1,0,-1,3,-28,1,-4,-3,i,
Cc1ccc(-c2noc(C3CCCN(C(=O)C4CCCCC4)C3)n2)o1 (stereo not drawn),4,-5,-1,-8,-1,-11,-10,i,
N#CCCn1nc(-c2ccccc2)cc1Nc1ccccc1NC(=O)c1cccs1,13,-3,-5,-59,2,9,5,i,
CC(C)c1ccc(N=Cc2c(O)c3ccccc3oc2=O)cc1,1,-10,-4,16,-9,-53,-20,i,
Cc1ccc(S(=O)(=O)/N=C2/NC(=O)/C(=C\c3ccccc3)S2)cc1,.,1,-5,.,.,-13,49,.,

# Taken from the results shown for reference:
SMILES,PABP polyA inh,MT1-MMP act inh,MT1-MMP act inh RFP,Env fusion inh,eIF4H FP inh,Yeast UUG start,CSC inhib,Rce1 inhib,others
CC(C)c1ccc(N=Cc2c(O)c3ccccc3oc2=O)cc1,1,-10,-4,16,-9,-53,-20,i,
Cc1ccc(S(=O)(=O)/N=C2/NC(=O)/C(=C\c3ccccc3)S2)cc1,.,1,-5,.,.,-13,49,.,

# The listing picks up; the two compounds before the break are reprinted first.
SMILES,PABP polyA inh,MT1-MMP act inh,MT1-MMP act inh RFP,Env fusion inh,eIF4H FP inh,Yeast UUG start,CSC inhib,Rce1 inhib,others
CC(C)c1ccc(N=Cc2c(O)c3ccccc3oc2=O)cc1,1,-10,-4,16,-9,-53,-20,i,
Cc1ccc(S(=O)(=O)/N=C2/NC(=O)/C(=C\c3ccccc3)S2)cc1,.,1,-5,.,.,-13,49,.,
COC(=O)C1=C(C)N(c2ccc(F)c(Cl)c2)C(=O)C1,2,-9,4,-143,2,-17,6,i,
COc1ccc(C(=O)CC(CC(=O)c2ccc(OC)cc2)C(=O)O)cc1,.,4,6,-12,.,-13,-5,i,
CCOC(=O)N1CCN(C(=O)c2ccc(OC(C)=O)cc2)CC1,-9,3,5,-1,-1,-9,-8,i,
Cc1ccccc1NC(=O)c1ccc2c(c1)N(C)CCS2,-13,1,1,-21,-3,-7,9,i,
Cc1ccc(S(=O)(=O)N2[C@@H](c3ccc(Cl)cc3)C(C(=O)O)=CC[C@H]2c2ccc3c(c2)OCO3)cc1,.,-3,2,4,.,-8,4,.,
C[C@]12c3[nH]c4ccccc4c3CCN1C(=O)C(CC(=O)NCCC1=CCCCC1)C[C@@H]2C(=O)N1CCCCC1 (stereo partly drawn),.,-9,-13,-46,.,-14,-13,.,
CC1=NN(c2ccc(C)cc2C)C(=O)C1C(c1cccc(O)c1)C1C(=O)N(c2ccc(C)cc2C)N=C1C (stereo not drawn),2,4,0,-50,4,-18,1,i,
COc1cc(NC(=O)c2ccccc2Cl)ccc1NC(=O)c1cccs1,-10,4,3,-67,-19,.,1,i,
Cn1c(N)c(C(=O)c2ccc(Oc3ccccc3)cc2)c(=O)n(C)c1=O,3,1,-2,1,9,.,1,i,
COc1ccc(C2CC(c3ccncc3)=NN2c2ccc(S(N)(=O)=O)cc2)cc1 (stereo not drawn),.,-61,9,-84,.,-26,.,.,
CCn1cc(C2=NOC(C(=O)Nc3cc(OC)c(Cl)cc3OC)C2)c(C)n1 (stereo not drawn),7,0,-6,27,-1,-9,-8,i,
Cc1oncc1C(=S)Nc1ccccc1,-1,8,5,-13,2,8,4,i,
Cc1nc(NC(=O)C2CC2)sc1C(=O)N1CCCCC1,2,2,4,.,-4,-9,-8,i,
CCCn1c(SCC(=O)N2c3ccccc3Sc3ccccc32)nc2c1c(=O)n(C)c(=O)n2C,3,-4,-12,30,-2,-2,-7,i,
CCN(CC)C(=O)c1scc2c1OCCO2,-3,2,-1,.,3,-3,25,i,
CCCC(=O)Nc1ccc(C(=O)NN=C(C2CC2)C2CC2)cc1,1,4,7,17,-6,8,13,i,
O=C(NCCn1cc(SCc2ccccc2F)c2ccccc21)c1c(F)cccc1F,6,-8,-21,.,-6,19,4,i,
COc1ccc(/C=N/NC(=O)C(=O)NCc2cccnc2)cc1OC,-5,-2,-1,.,-2,.,-24,i,
COc1ccc(NC(=O)c2cccc(S(=O)(=O)N3CCCCCC3)c2)cc1,6,-5,-15,9,-20,-14,2,i,
COc1ccc(OC)c(C(c2nnnn2C2CCCC2)N2CCc3ccccc3C2)c1 (stereo not drawn),-1,-7,-9,.,-1,-12,-5,i,
Cc1cccc(NC(=O)Nc2nnc([C@@H]3C[C@H](O)[C@@H](CO)O3)s2)c1,.,-3,2,-15,.,-1,.,.,
COC(=O)c1ccc(CSc2nnnn2-c2ccc(C)cc2C)o1,11,3,0,.,-3,-6,1,i,
Cc1cccn2c(=O)c(/C=C(\C#N)C(=O)NC3CCS(=O)(=O)C3)c(N3CCC(C(N)=O)CC3)nc12 (stereo not drawn),-2,4,2,13,8,.,3,i,
COc1ccc(NS(=O)(=O)c2cccc(C(=O)N/N=C/c3ccc(O)cc3)c2)cc1,1,-1,3,19,6,-18,8,i,
Cc1ccc(OCCC(=O)Nc2ccc3c(c2)OCO3)cc1,.,4,0,1,.,1,.,.,

# More structures
SMILES,PABP polyA inh,MT1-MMP act inh,MT1-MMP act inh RFP,Env fusion inh,eIF4H FP inh,Yeast UUG start,CSC inhib,Rce1 inhib,others
CNS(=O)(=O)c1cnccc1N1CCN(C)CC1,2,6,1,.,10,-16,3,i,
C=CCn1c(=O)c2ccccc2n2c(SCC(N)=O)nnc12,26,1,2,.,-9,-7,-9,i,
COc1ccc(-c2nnc(SCC(=O)N3c4ccccc4Sc4ccccc43)o2)cc1,-2,-9,-7,18,-6,-14,-4,i,
CC(=O)Nc1cccc(NC(=O)C(=O)NCC(c2ccco2)N2CCc3ccccc3C2)c1 (stereo not drawn),.,-5,-6,-5,.,1,-9,i,
COCc1cc(C)n(CC(=O)Nc2ccc(N3CCOCC3)c(Cl)c2)c(=O)c1C#N,9,3,7,-4,60,-23,-15,i,eIF4H FP inh retest=5;PABP polyA inh retest=5
Cc1ccc(NC(=S)N(CCCN2CCOCC2)Cc2ccco2)cc1C,15,3,3,12,-4,-23,-24,i,
COc1ccc([N+](=O)[O-])cc1NC(=O)COC(=O)C1CC1,4,-2,-2,6,-4,.,.,i,
COCCNC(=O)CC(NS(=O)(=O)c1ccc(NC(C)=O)cc1)C(C)C (stereo not drawn),-4,-1,-4,.,-6,1,-2,i,
COCCN1CCC(CNCc2cn[nH]c2-c2ccc(C)c(C)c2)C1 (stereo not drawn),23,-3,0,0,5,7,-12,i,
COc1cc(C(=O)N2CCN(c3ccc(C)cc3C)CC2)cc(OC)c1OC,-5,-2,-13,-91,-9,-11,60,i,
COc1ccc(-c2cc(C(=O)Nc3cccnc3)c3ccccc3n2)cc1OC,4,-2,3,6,-7,-17,-1,.,
CC(C)(C)N1CC(c2nc3ccccc3n2Cc2ccccc2)CC1=O (stereo not drawn),-9,-2,1,.,-4,-5,-19,i,
Cc1ncc(CN2CCN(Cc3ccccc3)C(CCO)C2)s1 (stereo not drawn),2,-2,-1,6,3,-46,3,i,
Cc1ccc(C)c(C(=O)NCc2ccncc2)c1,4,1,4,1,4,-16,-8,i,
Cc1ccn2cc(CC(=O)O)nc2c1,43*,-1,2,-12,?,-9,-6,i,PABP polyA inh retest=89*
O=C(N=Nc1c(O)[nH]c2ccc(Br)cc12)c1ccco1,.,-1,-4,-10,.,-5,.,.,
Nc1cc(N)nc(SCc2cc(=O)oc3cc4c(cc23)CCC4)n1,1,3,1,13,-5,.,-1,i,
CC(=O)c1cccc(NC(=O)C(OC(=O)c2ccccc2NS(=O)(=O)c2cccs2)c2ccccc2)c1 (stereo not drawn),-11,-2,-3,-21,-7,.,12,i,
CN(C)S(=O)(=O)N1CCCC(C(=O)c2ccc(-c3ccccc3)cc2)C1 (stereo not drawn),-3,2,-13,23,-10,.,-2,i,
O=C(Nc1ccccc1Cl)c1cccc(NC(=O)C2C3CC4OC(=O)C2C4C3)c1 (stereo not drawn),5,3,3,-91,-3,-5,3,i,
CC12CCC(c3nnc(SCC(=O)Nc4cccc5ccccc45)nc31)C2(C)C (stereo not drawn),6,-1,-6,-40,2,4,-13,i,
CC(Nc1nc(N2CCNCC2)nc2ccccc12)c1ccccc1 (stereo not drawn),9,0,-3,17,-11,.,-13,i,
CN1C(=O)NC2C1N(S(C)(=O)=O)CCN2S(C)(=O)=O (stereo not drawn),-9,-1,2,-31,-10,-25,-3,i,
CCOc1cc(C2C(C(=O)c3ccc(C)cc3)=C(C(=O)OC)Nc3nnnn32)ccc1O (stereo not drawn),-3,2,2,.,6,-14,4,i,
CCCN(Cc1ccccc1)C(=S)Nc1ccc(SC(F)F)cc1,-4,2,-7,9,-8,-23,.,i,
COc1cccc(C(C(=O)NC2CCCCC2)N(C(=O)c2csnn2)C2CC2)c1 (stereo not drawn),-3,-6,1,9,-1,-13,3,i,
